Mtb growth: Mycobacterium tuberculosis H37Rv growth inhibition, cell based, confirmatory dose response (AID 1949); M. tuberculosis H37Rv growth inhibition; 1.6% of 100,000 active; most inactive calls were filed without a number and no value below 0 was filed; inhibition, % at 10 µg/mL, or IC50 in µg/mL where a hit was titrated;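 active means confirmed in a dose series; inconclusive means about 50% or more but not retested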;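 further: bacteria grown 7 days with compound before Alamar blue readout; 0% = untreated bacteria and 100% = reference antibiotic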
* = called active by the depositor.

`C=CCOc1ccc(C2C(C(=O)c3cccs3)=C(O)C(=O)N2CCN(CC)CC)cc1OC` (stereo not drawn) gave Mtb growth inactive.
Screening CCCCOc1ccc(C2NC(=O)NC(C)=C2C(=O)OCc2ccccc2)cc1OC (stereo not drawn) returned Mtb growth inactive.
Screening COc1cccc(NC(=O)c2cc(C)ccc2C)c1 returned Mtb growth inactive.
For Cc1cc(Cl)ccc1OC(C)C(=O)Nc1ccc(OCC(=O)O)cc1 (stereo not drawn) the results were Mtb growth inactive.
`CC(=O)Nc1ccc(S(=O)(=O)NCc2ccccc2Cl)cc1` gave Mtb growth inactive.
Cc1cccc(NC(=O)CC(C(=O)O)N2CCOCC2)c1 (stereo not drawn) was read as Mtb growth inactive.
COc1ccc(S(=O)(=O)N2CCN(C(=O)c3ccc(F)cc3)CC2)cc1 was read as Mtb growth 1%.
For CC(=O)c1c(C)n(-c2ccccc2)c2ccc(OCC(N)=O)cc12 the results were Mtb growth inactive.
Screening COC(=O)C1=C(C)NC2=C(C(=O)CC(c3ccccc3Cl)C2)C1c1ccc(O)c(OC)c1 (stereo not drawn) returned Mtb growth 24%.
Screening Cc1ccc(C(=O)N/C(=C\c2ccccc2)c2nc(=S)[nH][nH]2)cc1 returned Mtb growth 18%.
`CCC(=O)NC(C)c1nc2ccccc2n1Cc1ccc(C)cc1` (stereo not drawn) gave Mtb growth 5%.
COc1ccc(C(C)NC(=O)Nc2ccc([N+](=O)[O-])cc2)cc1OC (stereo not drawn) was read as Mtb growth 1%.
COc1ccc(-c2csc(NC(=S)NC(=O)c3ccc(OC(C)C)cc3)n2)cc1 was read as Mtb growth inactive.
COc1cccc(OC)c1C(=O)NC(=S)Nc1ccc2c(c1)oc1ccccc12 was read as Mtb growth inactive.
`CCCOc1ccc(-c2csc(NC(=O)c3ccc(OC)cc3)n2)cc1` gave Mtb growth inactive.
For COc1ccc(C=O)cc1COc1ccc(Cl)cc1[N+](=O)[O-] the results were Mtb growth inactive.
For CCOC(=O)N1CCN(CCC(=O)Nc2ccccc2C)CC1 the results were Mtb growth 0%.
`CCOC(=O)c1cnn2c1NC(c1ccccc1)CC2C(F)F` (stereo not drawn) gave Mtb growth inactive.
Screening CC1(C(=O)c2ccccc2)C2c3cc(Br)ccc3OC(=O)C21C(=O)N1CCCCC1 (stereo not drawn) returned Mtb growth inactive.
COc1cccc(NC(=O)c2cc([N+](=O)[O-])ccc2N2CCCCCC2)c1 was read as Mtb growth 3%.
Screening COC(=O)c1cc(C(=O)NC(=S)Nc2cc(C)c(C)cc2Br)cc(C(=O)OC)c1 returned Mtb growth inactive.
Screening COc1cc([N+](=O)[O-])ccc1NC(=S)Nc1cccc(Cn2cc(Cl)cn2)c1 returned Mtb growth 2%.
S=c1[nH]nc(-c2ccccc2)n1CC1CCCO1 (stereo not drawn) was read as Mtb growth 0%.
Cc1ccc(S(=O)(=O)c2nc(S(C)(=O)=O)sc2N(C)C)cc1 was read as Mtb growth inactive.
CCn1c(SCC(=O)Nc2ccccc2C)nc2ccc(I)cc2c1=O was read as Mtb growth inactive.
Cc1ccc(SCC(=O)Nc2ccc(O)cc2C(=O)O)cc1 was read as Mtb growth 5%.
For N#CCCn1cc(C(=O)Nc2nccs2)c(-c2cc3ccccc3o2)n1 the results were Mtb growth inactive.
For COc1ccc(NC(=O)COc2cc(C)c(Br)c(C)c2)cc1OC the results were Mtb growth inactive.
For Cn1c(Cc2cccc3ccccc23)nnc1SCC(=O)c1ccc(Br)cc1 the results were Mtb growth inactive.
C#CCN(C#N)c1nc(NCC)nc(NC(C)C)n1 was read as Mtb growth inactive.
For Cc1ccc(OCCOc2ccccc2C=O)cc1 the results were Mtb growth inactive.
`O=C(Oc1ccc2cc(-c3nc4ccccc4s3)c(=O)oc2c1)c1ccc(F)cc1` gave Mtb growth inactive.
Screening O=C(NC1CC1)c1cc(Cl)ccc1Cl returned Mtb growth 9%.
Screening COc1ccc(NC(=O)C2(c3ccc(OC)c(OC)c3)CCCCC2)c(OC)c1 returned Mtb growth inactive.
Screening CC1=C(C#N)C(NC(=O)c2ccncc2)(C(F)(F)F)C(=O)N1 (stereo not drawn) returned Mtb growth inactive.
`Cc1cccc(C(=O)Nc2cccc(F)c2)c1[N+](=O)[O-]` gave Mtb growth 1%.
`COc1ccc(CNC(=O)c2oc3cc(C)c(C)cc3c2C)cc1` gave Mtb growth inactive.
CCCN(CCC)C(=O)CSc1ccc(C)cc1 was read as Mtb growth inactive.
`COC(=O)C1=C(C)N(c2cccc3ccccc23)C(=O)C1` gave Mtb growth 8%.
CCOCc1nnc(NC(=O)c2ccccc2SCC)s1 was read as Mtb growth inactive.
Screening COCCNC(=O)c1ccc(C)c(I)c1 returned Mtb growth inactive.
COc1ccc(NC(=O)CSc2nnc(-c3ccc(Cl)cc3)n2C)cc1 was read as Mtb growth inactive.
Screening CC(=O)Oc1ccc(C(=O)Nc2ccc(C3(C#N)CCCC3)cc2)cc1 returned Mtb growth inactive.
Screening CCN(C(=O)c1cccs1)C1C2CC3CC(C2)CC1C3 (stereo not drawn) returned Mtb growth inactive.
Screening COc1cc([N+](=O)[O-])ccc1NC(=S)N1CCN(c2ncccn2)CC1 returned Mtb growth inactive.
Brc1ccccc1OCCCN1CCOCC1 was read as Mtb growth inactive.
`O=C(NCc1cccs1)C1CC(c2c(F)cccc2Cl)=NO1` (stereo not drawn) gave Mtb growth inactive.
COc1ccc(OC)c(S(=O)(=O)Nc2c(C)cccc2C)c1 was read as Mtb growth inactive.

Quoted at random: 2 entries already listed, in no set order.
`COc1ccc(CNC(=O)c2oc3cc(C)c(C)cc3c2C)cc1` gave Mtb growth inactive.
Screening COCCNC(=O)c1ccc(C)c(I)c1 returned Mtb growth inactive.

Next section.
For COc1ccc(Cl)cc1NC(=O)CSc1nnc(CNC(=O)c2cccc([N+](=O)[O-])c2)n1C the results were Mtb growth inactive.
`CCOC(=O)c1cccc(NC(=S)NC(=O)c2ccco2)c1` gave Mtb growth inactive.
For Nc1nc(-c2ccc(O)c(O)c2)cs1 the results were Mtb growth inactive.
CC(NC(=O)CC1Sc2ccc(C(F)(F)F)cc2NC1=O)c1ccccc1 (stereo not drawn) was read as Mtb growth inactive.
COc1ccc(-n2c(/C=C/c3c[nH]c4ccccc34)nc3ccccc3c2=O)cc1 was read as Mtb growth 2%.
`Cc1ccc(NC(=O)Cc2cccc3ccccc23)c(O)c1` gave Mtb growth 12%.
For COc1cc(-c2nc3scc(-c4ccccc4)c3c(=O)o2)cc(OC)c1OC the results were Mtb growth inactive.
Screening C=CCOc1cccc(C(=O)NCc2ccc(F)cc2)c1 returned Mtb growth inactive.
Screening CCCS(=O)(=O)N1CCN(C(=O)c2cccnc2)CC1 returned Mtb growth inactive.
For Cn1c(SCC(=O)c2ccc(Cl)cc2)nnc1-c1ccncc1 the results were Mtb growth 5%.
O=C(Cc1cccc2ccccc12)Nc1ccc([N+](=O)[O-])cc1O was read as Mtb growth inactive.
Screening CCOc1cc(CNCc2cccnc2)ccc1OCC(=O)NC(C)(C)C returned Mtb growth inactive.

Sorted by length of the SMILES (ascending): part of the list above.
Brc1ccccc1OCCCN1CCOCC1 was read as Mtb growth inactive.
For Nc1nc(-c2ccc(O)c(O)c2)cs1 the results were Mtb growth inactive.
Screening C=CCOc1cccc(C(=O)NCc2ccc(F)cc2)c1 returned Mtb growth inactive.
Screening CCCS(=O)(=O)N1CCN(C(=O)c2cccnc2)CC1 returned Mtb growth inactive.
`CCOC(=O)c1cccc(NC(=S)NC(=O)c2ccco2)c1` gave Mtb growth inactive.
For Cn1c(SCC(=O)c2ccc(Cl)cc2)nnc1-c1ccncc1 the results were Mtb growth 5%.
Screening CCOc1cc(CNCc2cccnc2)ccc1OCC(=O)NC(C)(C)C returned Mtb growth inactive.
O=C(Cc1cccc2ccccc12)Nc1ccc([N+](=O)[O-])cc1O was read as Mtb growth inactive.
CC(NC(=O)CC1Sc2ccc(C(F)(F)F)cc2NC1=O)c1ccccc1 (stereo not drawn) was read as Mtb growth inactive.
For COc1cc(-c2nc3scc(-c4ccccc4)c3c(=O)o2)cc(OC)c1OC the results were Mtb growth inactive.
Screening COc1cc([N+](=O)[O-])ccc1NC(=S)N1CCN(c2ncccn2)CC1 returned Mtb growth inactive.
COc1ccc(-n2c(/C=C/c3c[nH]c4ccccc34)nc3ccccc3c2=O)cc1 was read as Mtb growth 2%.
For COc1ccc(Cl)cc1NC(=O)CSc1nnc(CNC(=O)c2cccc([N+](=O)[O-])c2)n1C the results were Mtb growth inactive.

(next part)
Screening O=S(=O)(c1ccccc1)N1CCN(Cc2ccsc2)CC1 returned Mtb growth inactive.
`Cc1ccc(NC(=O)C(C)c2ccccc2)cc1Cl` (stereo not drawn) gave Mtb growth inactive.
`COC(=O)c1cc(-c2cccs2)on1` gave Mtb growth inactive.
CCN(CC)C(=O)C(=O)c1cn(CCOc2ccccc2C)c2ccccc12 was read as Mtb growth 2%.
For COc1c(C(=O)Nc2ccncc2)ccc2ccccc12 the results were Mtb growth inconclusive.
CCOc1ccccc1NC(=O)C(C)Oc1ccc(OC)cc1 (stereo not drawn) was read as Mtb growth 2%.
For CCc1ccccc1NC(=O)C(=O)NC1CCCCC1C (stereo not drawn) the results were Mtb growth 3%.
Screening O=C(CSc1nnc(-c2cccnc2)o1)c1ccc2c(c1)OCCO2 returned Mtb growth inactive.
For CCCC(=O)N1CCN(c2ccc(NC(=O)c3ccc(OCC)c([N+](=O)[O-])c3)cc2)CC1 the results were Mtb growth inactive.
`C=CCN(C(=O)c1ccc(OC)cc1)c1nnc(-c2ccncc2)s1` gave Mtb growth 0%.
O=C(Oc1ccc(Cl)cc1)c1ccc2nc(N3C(=O)c4ccccc4C3=O)sc2c1 was read as Mtb growth inconclusive.
For CC1CCN(S(=O)(=O)c2ccc(NC(=O)c3ccc(Cl)cc3)cc2)CC1 the results were Mtb growth 16%.
Screening O=C(CSc1nc(C(F)(F)F)cc(=O)[nH]1)Nc1ccc(Br)cc1 returned Mtb growth inactive.
`O=C(COc1ccc(S(=O)(=O)N2CCCCC2)cc1)Nc1ccc2c(c1)OCCO2` gave Mtb growth inactive.
For C=CCn1c(N)cc(=O)nc1SCC(=O)Nc1cc(C)on1 the results were Mtb growth inactive.
Screening O=C(NNC(=S)NCc1ccc(F)cc1)c1ccc(Br)s1 returned Mtb growth inactive.
For COc1ccc(OCc2nc3c4c5c(sc4ncn3n2)CCCCC5)cc1 the results were Mtb growth inactive.
Screening Cc1cc(C)cc(C(=O)Nc2cccc(C)n2)c1 returned Mtb growth 44%.
`CCC1CCCCN1C(=O)c1cnn2c(C(F)F)cc(-c3ccccc3)nc12` (stereo not drawn) gave Mtb growth 12%.
For CCC1CCc2nc(SCC(=O)Nc3nccs3)c(C#N)c(C(F)(F)F)c2C1 (stereo not drawn) the results were Mtb growth 2%.
COCCNC(=S)Nc1ccn(Cc2ccc(F)cc2)n1 was read as Mtb growth 1%.
`COc1ccc(S(=O)(=O)N2CCOCC2)cc1C(=O)NCCN1CCOCC1` gave Mtb growth inactive.
`FC(F)(F)c1ccccc1NC(=S)N1CCN(C/C=C/c2ccccc2)CC1` gave Mtb growth inactive.
`CCOC(=O)CCC(NC(=O)c1ccc(I)cc1)C(=O)OCC` (stereo not drawn) gave Mtb growth 3%.
O=C(CN(Cc1ccc(Cl)c(Cl)c1)S(=O)(=O)c1ccc(Br)cc1)N1CCOCC1 was read as Mtb growth inactive.
For O=C(CSc1n[nH]c(-c2ccc(Cl)cc2)n1)N1CCN(c2ccccc2)CC1 the results were Mtb growth inactive.
For COc1ccc(Cc2nnc(SCC(=O)Nc3ncc(C)s3)n2C)cc1 the results were Mtb growth inactive.
CCn1c(SCC(=O)C(C)(C)C)nnc1-c1ccccn1 was read as Mtb growth 7%.
For CC(NC(=S)NC(=O)c1ccc(-c2ccccc2)cc1)c1ccccc1 (stereo not drawn) the results were Mtb growth 5.8µg/mL*.
`CC12CCC(C(=O)Nc3ccc4c(c3)OCO4)(OC1=O)C2(C)C` (stereo not drawn) gave Mtb growth inactive.
`COc1ccc(-c2cc(C(F)F)n3ncc(C(=O)NC4CCCCC4)c3n2)cc1` gave Mtb growth inactive.
For CCOC(=O)COc1ccc2c(c1)c(C(=O)OCC)c(C)n2CC the results were Mtb growth 0.4µg/mL*.
Screening O=C(Nc1cnccn1)c1cccnc1 returned Mtb growth inactive.
C=CCN1C(=O)N(c2ccccc2)C(=O)C1CC(=O)Nc1ccc(C(=O)OCC)cc1 (stereo not drawn) was read as Mtb growth inactive.
Screening CCNC(=O)C(=O)NCCc1ccc(Cl)cc1 returned Mtb growth 0%.
`COc1ccc(C(=O)N(Cc2ccccc2)c2ccc(C)cc2)cc1` gave Mtb growth inactive.
`COc1cc(OC)cc(-c2nc(SCC(=O)NC3CC4CCC3C4)n[nH]2)c1` (stereo not drawn) gave Mtb growth 0%.
Screening COC(=O)c1cc(Br)ccc1NC(=O)c1c(OC)cccc1OC returned Mtb growth inactive.
`CC(C)Oc1ccc(C(=O)NCC(=O)O)cc1` gave Mtb growth inactive.
Screening Cc1cccc(NC(=O)C2CC(=O)OC2(C)C)c1 (stereo not drawn) returned Mtb growth inactive.
Screening COC(=O)c1ccc(NC(=O)CSC2=NC(c3ccccc3)CC(=O)N2)cc1 (stereo not drawn) returned Mtb growth inactive.
Screening O=C1C(=O)N(CCn2c3ccccc3c3nc4ccccc4nc32)c2ccccc21 returned Mtb growth 8%.
`Cc1cc(C(=S)N2CCOCC2)c(C)n1-c1ccc(Cl)cc1` gave Mtb growth inactive.
For CCC(=O)Nc1ccc(-c2nn3c(CC)nnc3s2)cc1 the results were Mtb growth inactive.
For CCc1ccc(NC(=O)C2CCN(S(=O)(=O)c3ccc(F)cc3)CC2)cc1 the results were Mtb growth 4%.
Screening Cc1sc2nc(SCC(=O)NCCc3ccccc3)n(-c3ccccc3)c(=O)c2c1C returned Mtb growth inactive.
`O=C(COc1ccc(S(=O)(=O)NCCc2ccccc2)cc1)NC1CCCC1` gave Mtb growth inactive.
COc1ccc(CCNC(=O)c2csc3c2CCCC3)cc1OC was read as Mtb growth inactive.
For Cc1ccccc1N1C(=O)CC(N2CCC(C(N)=O)CC2)C1=O (stereo not drawn) the results were Mtb growth 1%.
COc1cccc(-n2c(=O)c3c(n4c(=S)[nH]nc24)-c2ccccc2CC32CCCCC2)c1 was read as Mtb growth inactive.
COC(=O)c1c(NC(=O)C2CC=CCC2C(=O)O)sc2c1CCCCC2 (stereo not drawn) was read as Mtb growth inactive.

Screens deposited in PubChem BioAssay by Southern Research Institute.

This is a subset; count on the stated rates, not on these rows.
